# Source: PubChem
# eIF4H FP inh – inhibitors of RNA binding by human eIF4H | inhibition, % at 35 µM | eIF4H fluorescence polarization binding assay | actives 0.94% (n = 290,000) | AID 2012 | Q15056;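 active = 50% or more with normal probe brightness, or confirmed in later tests; inconclusive = above 50% with abnormal brightness, or retests that disagree; inactive = below 50% or failed in later tests; about a fifth of its hits are not listed in these tables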;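 also: calls also rest on retests at 20 µM and on dose response follow-up; 0% = protein and probe with vehicle and 100% = probe without protein; strong numbers were not always called active; many hits fall short of the cut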
# MT1-MMP act inh – MT1-MMP (human) activation inhibition; AID 651647; P50281; GFP/RFP ratio change, % at 20 µM; actives 0.061% (n = 360,000); HT1080 RFP-PRO-GFP cells, GFP/RFP ratio fluorescence, overnight; percent of plate control window, DMSO zero;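 active = GFP/RFP ratio change of at least 30% with cell ATP level not reduced by more than half and red fluorescence within 50% of control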; also: strong numbers were not always called active
#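 Test system: HT1080 cells expressing an RFP-PRO-GFP fluorescent reporter construct / Compound dosing: single-point 20 µM compound, 1% DMSO / Schedule: cells overnight before dosing, compound overnight, 37 °C, 5% CO2 / Evaluation: GFP/RFP fluorescence ratio / Control set: DMSO and RFP-L50D-GFP cell wells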
# Rce1 inhib – blocks yeast Ras-converting enzyme; Q03530; calls only; actives 0.27% (n = 290,000); yeast membranes, quenched prenylated peptide cleavage fluorescence; AID 2563;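 active = fall in fluorescence gain of 50% or more versus controls, with final raw signal at or below 3038400; inconclusive = same 50% fall but final raw signal above 3038400; inactive = fall in fluorescence gain under 50%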;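 also: plate controls were neutral control wells for no effect and wells lacking membranes for full effect; tested at 10 µM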
# Env fusion inh – blocks HIV Env-driven cell-cell fusion. inhibition, % at 12.3 µM. actives 1.1% (n = 360,000). HeLa-JRFL Env/CEM21 cell fusion, luciferase;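 active = mean replicate inhibition score of at least 50 and every replicate individually at or above 50; inconclusive = only one of the two criteria met; inactive = mean below 50 and not all replicates reaching 50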;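 also: 0% = plate neutral controls and 100% = maraviroc near 300 nM; one replicate is shown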
# PABP FP inh – PABP-poly(A) binding inhibition. P11940. PABP-poly(A) RNA binding, fluorescence polarization. inhibition, % at 35 µM. actives 1% (n = 290,000). AID 2014;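 active = 50% or more with normal probe brightness, or confirmed in later tests; inconclusive = above 50% with abnormal brightness, or retests that disagree; inactive = below 50% or failed in later tests; about a fifth of its hits are not listed in these tables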;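 also: calls also rest on retests at 20 µM and on dose response follow-up; controls were probe without protein and protein plus probe with vehicle; some compounds called inactive have numbers as strong as hits; many hits fall short of the cut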
# Target sequence (P11940 whole entry, looked up): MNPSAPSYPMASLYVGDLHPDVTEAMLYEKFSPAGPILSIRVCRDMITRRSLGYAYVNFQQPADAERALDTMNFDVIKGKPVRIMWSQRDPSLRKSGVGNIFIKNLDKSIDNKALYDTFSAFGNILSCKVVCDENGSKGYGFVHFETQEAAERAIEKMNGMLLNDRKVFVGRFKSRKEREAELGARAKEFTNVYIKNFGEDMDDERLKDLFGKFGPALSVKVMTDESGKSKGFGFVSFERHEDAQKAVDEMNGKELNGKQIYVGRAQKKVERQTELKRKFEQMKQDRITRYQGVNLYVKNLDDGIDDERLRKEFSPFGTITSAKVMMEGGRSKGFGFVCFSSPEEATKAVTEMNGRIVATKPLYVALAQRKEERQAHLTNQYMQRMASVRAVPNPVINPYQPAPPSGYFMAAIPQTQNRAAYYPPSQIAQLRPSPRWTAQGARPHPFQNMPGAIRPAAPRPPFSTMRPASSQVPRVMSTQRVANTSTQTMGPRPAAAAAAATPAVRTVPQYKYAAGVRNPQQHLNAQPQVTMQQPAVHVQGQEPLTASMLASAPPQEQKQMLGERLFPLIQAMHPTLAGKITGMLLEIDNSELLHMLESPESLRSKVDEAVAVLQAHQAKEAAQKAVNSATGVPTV
# CSC inhib – blocks cancer stem cells | AID 2717 | actives 1.1% (n = 300,000) | inhibition, % at 7.5 µM | cancer stem cell-like cells viability, luminescence;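 active = mean at 75% or more and at least half the replicates too; inconclusive = mean and replicates disagree; tested in HMLE shEcad cells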;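 also: 0% = median of negative and 100% = median of positive control wells; the first replicate is given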
# UUG fidelity – alters start codon recognition fidelity in yeast | S. cerevisiae UUG-firefly luciferase reporter, luminescence/redox ratio | activity score, % at 18.7 µM | actives 0.13% (n = 350,000) | AID 602363;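 active = replicate mean at a twofold rise or more, about +100% in these data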;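 also: firefly luciferase made from a UUG start codon reports start codon fidelity; reporter light over untreated wells divided by growth signal over untreated wells; some hits fall short of that in this replicate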
# eIF4H FP inh retest – further read-out of eIF4H FP inh, marked with its call; inhibition, %; compound at 20 µM; confirmation average;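 mean of two retest wells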
# PABP FP inh retest – further read-out of PABP FP inh, marked with its call; inhibition, %; compound at 20 µM; confirmation repeats;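 mean of two retest wells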
# MT1-MMP act inh RFP – also measured in MT1-MMP act inh; calls as there; RFP signal change, %; measured here: RFP expression control read;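 0 = vehicle wells; hits needed this value within 50% of zero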
# * = called active by the depositor; i = inactive; ? = inconclusive; nt = not tested or not shown. An excerpt; the hit share may differ from the screen's.
SMILES,eIF4H FP inh,MT1-MMP act inh,MT1-MMP act inh RFP,Rce1 inhib,Env fusion inh,PABP FP inh,CSC inhib,UUG fidelity,others
c1ccc(CSc2ncnc3c2cnn3Cc2ccccc2)cc1,-12,-2,-1,i,-329,-4,5,-3,
CC(C)C[C@H]1CN([C@@H](Cc2ccccc2)CN2CCC[C@@H]2CN2C(=O)C(=O)NC[C@@H]2Cc2ccc(O)cc2)C(=O)C(=O)N1CCc1ccccc1,nt,0,1,nt,-6,nt,nt,4,
Cc1ccccc1NC(=O)C1C2CCCC1C2c1ccccc1 (stereo unspecified),2,8,5,i,nt,1,2,-22,
CC(C)c1ccc(S(=O)(=O)N2CCN(C(=O)c3cccc(F)c3)CC2)cc1,-4,5,-9,i,nt,-4,nt,-19,
CCCCNC(=O)C1(C)CCCCN1C(=O)c1c(Cl)cccc1Cl (stereo unspecified),nt,3,3,nt,-32,nt,nt,-3,
Cc1ccc(C23CC4CC(CC(C(=O)OCC(=O)N(C)C)(C4)C2)C3)cc1,-7,0,-6,i,-14,-9,-24,21,
CCN(CC(=O)NCc1ccc(Cl)cc1)C(=O)/C=C/c1ccco1,16*,-3,-1,i,9,56*,-7,-9,eIF4H FP inh retest=95*;PABP FP inh retest=93*
CCc1nnc(NS(=O)(=O)c2ccc(NC(=O)c3ccccc3O)cc2)s1,-11,1,0,?,5,10,0,-9,
Cc1oc(-c2ccccc2F)nc1CS(=O)CC(=O)NCc1ccccc1 (stereo unspecified),-3,-2,1,i,6,-8,-28,nt,
Cc1ccccc1-c1nc(CS(=O)(=O)CC(=O)NCc2ccco2)c(C)o1,-14,0,1,i,-30,-5,-1,nt,
Cc1ccc(NC(=O)CCn2cccc2)cc1Cl,-11,-2,1,i,nt,0,-9,-13,
CN1CC(=O)N2[C@H](c3ccc4c(c3)OCO4)c3[nH]c4ccccc4c3C[C@@H]2C1=O,-7,-4,-7,i,-1,-6,7,-10,
CSCCC(NS(=O)(=O)c1ccc(C)cc1)C(=O)NCCc1c[nH]c2ccccc12 (stereo unspecified),3,-2,-6,i,nt,3,-3,-16,
Cc1ccc(N2C(=O)C(Cl)=C(NCc3ccccc3)C2=O)c(C)c1,-1,-3,-7,i,nt,-9,-6,-1,
CCCn1c(SCC(=O)NC2CCCC2)nnc1C(C)C,14,3,3,i,-10,2,-4,-8,
CC(=O)Nc1ccccc1C(=O)C(=O)Nc1ccc(Cl)cc1,-5,1,-2,i,-7,4,3,nt,
N/C(=N\OC(=O)Oc1ccccc1)c1ccc([N+](=O)[O-])cc1,-4,5,1,i,nt,-16,nt,9,
COC(=O)c1scc(C)c1NC(=O)c1ccc(Cl)cc1,-4,-3,-2,i,nt,-2,-10,-10,
COc1ccc(-n2c(C)c([N+](=O)[O-])c3ccc(O)c(CN(C)C)c32)cc1,-18,-22,-18,i,nt,3,-6,-4,
COc1ccc(-n2cccc2/C=C2/NC(=O)N(c3cccc(Cl)c3)C2=O)cc1,-1,0,1,i,13,14,14,nt,
COc1ccc2c(CC(=O)Nc3ccc4nc(N5CCOCC5)sc4c3)coc2c1,nt,-1,-1,nt,-13,nt,nt,0,
S=C(Nc1ccc(Oc2ccccc2)cc1)N(CCCN1CCOCC1)Cc1ccccn1,2,-4,-5,i,-5,-1,-14,nt,
COc1cc(F)ccc1S(=O)(=O)N1CCN(c2ccccc2)CC1,-8,5,3,i,-15,-2,-2,-13,
CCOC(=O)N1CCN(C(=O)c2cccc(S(=O)(=O)Nc3ccc(F)cc3)c2)CC1,nt,2,3,nt,-9,nt,nt,-4,
O=C1CSC(c2ccccc2[N+](=O)[O-])N1c1ccccc1 (stereo unspecified),0,5,-1,i,-8,-10,10,-7,
Cc1nn(-c2ccc(F)cc2)c(Cl)c1/C=N/NC(=O)c1ccc(O)cc1,-2,2,3,nt,1,-1,17,nt,
O=C(NC(Cc1c[nH]c2ccccc12)C(=O)N/N=C/c1ccc(Br)cc1)c1cccs1 (stereo unspecified),-4,0,-6,i,32,-7,47,4,
CCN(CC)S(=O)(=O)c1cccc(NC(=O)COC(=O)c2ccc(Br)o2)c1,8,9,9,nt,-125,-7,-11,-13,
CCOc1ccc(N2C(=O)C3C(c4ccc(O)cc4)NC(CCSC)(C(=O)OC)C3C2=O)cc1 (stereo unspecified),-3,-3,0,nt,-2,6,-6,nt,
Cc1nc2ccc(C(=O)N(C)Cc3ccco3)cn2c1N(C)CC1CCCCC1,nt,-4,-6,nt,7,nt,nt,-31,
O=C(C1CCCO1)N1N=C(c2ccc(Br)cc2)CC1c1ccco1 (stereo unspecified),-2,-7,-9,i,nt,-11,9,7,
O=C(O)C1C2C=CC(C2)C1C(=O)NCCC1=CCCCC1 (stereo unspecified),-5,0,2,i,nt,-5,0,nt,
COc1ccc(S(=O)(=O)NCC2CCCN(Cc3ccc(C)o3)C2)cc1 (stereo unspecified),-7,-1,2,i,-8,1,4,-16,
O=[N+]([O-])c1ccc(N2CCN(c3ccc(F)cc3)CC2)cc1,6,22,-5,i,-2,-2,nt,-15,
Cc1cccc(C(=O)Nc2nnc(SCC(=O)NC3CC3)s2)c1,-14,0,-1,nt,-19,5,-1,-8,
NS(=O)(=O)c1ccc(CCNC(=O)C2CCCCN2S(=O)(=O)c2ccccc2)cc1 (stereo unspecified),-8,-4,0,i,10,-3,0,-2,
Cc1nc([N+](=O)[O-])c(Sc2nc3ccccc3n2C)n1Cc1ccccc1,12,-1,-4,i,23,45,12,-21,
CCN(CC(=O)Nc1cccc(OC)c1)C(=O)c1ccco1,-6,0,3,i,-9,-7,-4,-11,
COc1ccccc1N1CC(C(=O)Nc2cccc(C(=O)O)c2)CC1=O (stereo unspecified),-6,2,4,i,nt,-8,-2,-10,
Cc1ccc(NC(=O)CCC(=O)NCCO)cc1,-2,-1,2,i,nt,4,-10,-20,
COc1cccc(OC)c1OC(=O)C1CC(=O)N(c2ccc3c(c2)OCCO3)C1 (stereo unspecified),nt,-2,3,nt,nt,nt,2,-12,
CCCCSc1nnc(-c2ccccc2)c2ccccc12,-4,-7,-7,i,36,-5,30,nt,
COc1ccc(OCc2cc(C(=O)N(C)C(C)c3ccon3)no2)c(Cl)c1 (stereo unspecified),-3,1,0,nt,-28,6,-5,-1,
Cc1cc(NC(=O)COC(=O)CC2CCCC2)c([N+](=O)[O-])cc1C,-5,2,3,i,3,-1,-10,-11,
COc1cccc(C2CC(c3c(-c4ccccc4)c4cc(Cl)ccc4[nH]c3=O)=NN2S(C)(=O)=O)c1OC (stereo unspecified),-4,-10,-11,i,nt,-4,16,-5,
Cc1cccc(OCCSc2nc3ncnc(N)c3[nH]2)c1,10,1,-1,i,28,2,-1,nt,
CCCCOc1ccc(-c2ncc(C(=O)OCC)c(N)n2)cc1,3,-1,-12,i,30,-7,38,-8,
COC(=O)C1=COC(OC2OC(CO)C(O)C(O)C2O)C2C1C=CC2(O)CO (stereo unspecified),89*,3,4,nt,nt,62*,-5,-5,

# Two neighbouring records already listed, for reference:
SMILES,eIF4H FP inh,MT1-MMP act inh,MT1-MMP act inh RFP,Rce1 inhib,Env fusion inh,PABP FP inh,CSC inhib,UUG fidelity,others
CCCCOc1ccc(-c2ncc(C(=O)OCC)c(N)n2)cc1,3,-1,-12,i,30,-7,38,-8,
COC(=O)C1=COC(OC2OC(CO)C(O)C(O)C2O)C2C1C=CC2(O)CO (stereo unspecified),89*,3,4,nt,nt,62*,-5,-5,

# More compounds follow:
SMILES,eIF4H FP inh,MT1-MMP act inh,MT1-MMP act inh RFP,Rce1 inhib,Env fusion inh,PABP FP inh,CSC inhib,UUG fidelity,others
O=C(c1cc2c(s1)-c1ccccc1OC2)N1CCc2ccccc2C1,-1,-6,1,i,-13,3,7,0,
Cn1c(C(=O)O)ccc1S(=O)(=O)N(Cc1ccccc1)Cc1ccccc1,4,-2,3,i,-12,1,nt,nt,
COc1ccc(C=CC(O)CCN2CCC3CCC(C3)C2)cc1 (stereo unspecified),nt,-1,2,nt,-12,nt,nt,5,
O=C(CSc1n[nH]c(-c2ccncc2)n1)Nc1ccc(Cl)c(C(=O)O)c1,-6,-2,2,i,-3,11,-14,nt,
COCCSc1ccccc1C(=O)N1CCN(c2ccccc2)CC1,-2,-1,2,i,0,8,0,8,
CCCCC(=O)Nc1ccc(C)c(O)c1,-8,8,0,i,nt,0,-3,-13,
COc1cccc(C(O)c2ncc(-c3ccc(Cl)cc3)[nH]2)c1 (stereo unspecified),nt,-2,0,nt,26,nt,nt,-11,
Cc1ccc(-n2cccc2C(=O)NS(=O)(=O)c2ccc(C)cc2)cc1,17,-10,0,i,-2,9,-7,6,
CC(C)NC(=O)N(C)C[C@H]1Oc2c(NC(=O)Nc3ccc4c(c3)OCO4)cccc2C(=O)N([C@H](C)CO)C[C@@H]1C,nt,0,3,nt,-62,nt,nt,-8,
COc1ccc(O[C@@H]2O[C@H](COC(C)=O)[C@@H](OC(C)=O)[C@H](OC(C)=O)[C@H]2NC(C)=O)cc1,0,-1,3,i,2,-5,-8,14,
NC(=O)CC(NC(=O)c1ccccc1)C(=O)O (stereo unspecified),nt,3,3,i,nt,nt,-5,-22,
Cc1c(NC(=O)C(C)NCC2CCCO2)c(=O)n(-c2ccccc2)n1C (stereo unspecified),-8,1,4,i,nt,-2,-8,-3,
Cc1cc2nc(-c3ccc4c(c3)CCC4)ccn2n1,-6,-1,-2,i,9,3,-7,nt,
Nc1nc(Nc2ccccc2F)nc(NCc2ccco2)c1[N+](=O)[O-],-4,-1,-8,i,-1,-6,-13,nt,
CCOC(=O)C1(CCCc2ccccc2)CCN(C(=O)CCC2=NNC(=O)CC2)CC1,3,-3,-3,i,-2,-6,1,nt,
Cc1c2cnn(-c3ccccc3)c(=O)c2c(C)n1CCCC(=O)N1CCN(c2ncccn2)CC1,2,-1,-5,nt,nt,1,nt,-4,
Cc1nc(S(=O)(=O)Cc2ccc(Cl)cc2)nc2c1CCC2,-10,-1,0,i,1,1,1,-18,
COc1ccccc1Cn1c(=S)[nH]c2ccc(Br)cc2c1=O,-5,-1,0,i,3,-4,nt,-10,
O=C(NCCCc1ccccc1)c1ccncc1,4,6,4,i,-43,3,5,11,
COc1ccccc1-c1nnc2sc(COc3ccc(Cl)cc3)nn12,-10,-6,-4,i,nt,-1,-5,0,
CCOc1ccc2nc(-c3ccccc3)nc(SCC(=O)OC)c2c1,-3,10,-5,i,2,24,3,-7,
Cc1coc2c1c(C)cc1oc(=O)c(CC(=O)NCC(=O)NCC(=O)O)c(C)c12,9,nt,nt,i,-1,8,-7,-3,
C/C(N)=C(/C#N)C(=O)CSc1nc2cc(Cl)ccc2c(=O)n1Cc1ccco1,8,-6,-3,i,5,-10,31,nt,
CCc1c(C)[nH]c(=S)c(C#N)c1C,3,-4,0,i,-283,19,-6,-3,
Cc1ccc(O)c(-c2cc(C(=O)Nc3c(C)n(C)n(-c4ccccc4)c3=O)[nH]n2)c1,4,8,-4,i,24,39,-3,nt,
Cc1csc(Sc2nc3c(c(=O)[nH]c(=O)n3C)n2Cc2ccccc2Cl)n1,6,-3,-6,nt,-164,-3,-18,-8,
COc1ccc(S(=O)(=O)N2CCN(C(=O)c3cccnc3)CC2)cc1OC,-8,1,0,i,4,2,nt,-14,
CN(C)S(=O)(=O)N(CC(=O)Nc1ccccc1F)c1ccccc1,-6,2,1,i,-37,-13,-12,-12,
